# Screens: PubChem BioAssay, several laboratories
# BJeLR viability = MLPCN primary cell-based screen for lethality selective to Ras in HRASV12 cells | BJeLR (HRASV12) viability, CellTiter-Glo ATP luminescence, 48 h; reference of the scale not given here | inhibition, % (test concentration not listed) | 300,000 compounds, 0.17% hits | AID 1554, 2009;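 active means replicate mean above 50%; inconclusive means above 50% but judged a plate artefact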;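 further: 50 nL library stock added to about 25 µL; numbers are from one replicate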
# RN4220 kill = growth inhibition of S. aureus RN4220, primary screen, OD600; 330,000 compounds, 0.33% hits; inhibition, % (concentration not given with the values); 16 h; AID 1259311, 2017;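 active means z-score of -3 or lower and OD600 up to 0.18 on both plates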;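 further: plate controls were untreated cells for no effect and reference antibiotic for full effect; stock transfer was 100 nL into about 80 µL; one replicate is shown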
# PrP 5UTR inh = inhibition of PrP 5' UTR reporter expression. cell-based PrP 5' UTR mRNA reporter, plate reader. AID 488862, 2010. 340,000 compounds, 0.35% hits. inhibition, % (no concentration beside the values);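 active means every replicate at 50% or more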;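 further: 0 = median of the neutral control wells; tested in H4 reporter cells; numbers are from one replicate; inactives centre near -14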
# Bead autofluor = compound fluorescence in toxin protease inhibitor counterscreen; compound autofluorescence counterscreen, microsphere flow cytometry; active compounds read high; fluorescence intensity (test concentration not listed); 360,000 compounds, 3.1% hits; AID 624483;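 active means at least 3 SD above the mean of all compounds, about 16000 in these data; inconclusive means too few beads counted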;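 further: 100 nL of 1 mM stock went into each well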
# Sa ugtP lethal = growth inhibition of ugtP-null S. aureus, primary screen, RN4220 ugtP deletion, OD600; growth inhibition, % (test concentration not listed); 330,000 compounds, 0.54% hits; 16 h; some inactives read as strong as hits;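 active means z-score under -3 and OD600 up to 0.15 on both plates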;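 further: plate controls were untreated wells for no effect and antibiotic for full effect; wells of about 80 µL received 100 nL stock; the first replicate is given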
# Mtb hypoxia inh = PubChem AID 1159583; 300,000 compounds, 0.1% hits; M. tuberculosis hypoxia-regulated fluorescent reporter, fluorescence; fluorescence inhibition, % (no concentration beside the values);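 active means 35 to 45% if threefold the growth effect, above 45% if 1.5-fold the growth effect; inactive means the rest, general growth blockers included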;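 further: wells of about 50 µL received 100 nL stock; 0% = vehicle wells and 100% = reference inhibitor wells; whole bacteria with a GFP reporter of the hypoxia response; strong numbers were not always called active; many hits fall short of the cut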
# Mtb hypoxia inh growth = also measured in Mtb hypoxia inh; calls as there; growth inhibition, %; measured here: M. tuberculosis growth (absorbance);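 0% = vehicle and 100% = reference antibiotic; read after six days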
# Active calls of the source: *; ? = inconclusive; . = not tested or not shown.
SMILES,BJeLR viability,RN4220 kill,PrP 5UTR inh,Bead autofluor,Sa ugtP lethal,Mtb hypoxia inh,Mtb hypoxia inh growth
CC(C)OC(=O)CSc1nc2c(c(C3CC=CCC3)c1C#N)CCC2 (configuration not stated),-0.6,-2.3,-7.9,7904,34.6,2.6,10.3
CC1(C(=O)N2CCOCC2)CCCCC1,-9.5,2.4,-37.0,4118,7.0,1.7,-3.5
COc1cccc(/C=N/NC(=O)C(=O)N2CCCC2)c1,-9.8,.,-17.0,5871,.,.,.
COc1ccc(Cl)cc1S(=O)(=O)N(C)CC(=O)NCCCn1ccnc1,-5.1,1.8,-24.3,5589,1.9,7.5,2.4
O=C(COC(=O)COc1ccccc1)NC1CCS(=O)(=O)C1 (configuration not stated),.,-1.0,-6.0,3950,-2.0,-13.8,8.0
Cc1cccc(OCc2nnc(SCC(=O)Nc3nccs3)o2)c1,-3.3,4.6,-6.2,3735,0.8,6.9,4.5
CC(C)CN(c1ccccc1)S(=O)(=O)c1nnc(NC(=O)C(C)C)s1,3.0,4.9,2.3,3555,10.7,8.4,-6.8
CCC(=O)Nc1ccc(C(=O)n2nc(C)cc2C)cc1,-1.0,-3.0,2.0,4968,9.2,.,.
CCOC(=O)c1c(NC(=O)C2C3C=CC(C3)C2(C)C(=O)O)sc2c1CCCC2 (configuration not stated),-4.2,6.4,-27.0,2537,35.1,1.7,20.4
COc1ccc(-c2cc(C(=O)NCCN3CCOCC3)c3cc(C(C)C)ccc3n2)cc1,-6.6,2.5,-14.9,6568,-3.4,5.8,2.0
CCOC(=O)Cn1c(C)[n+](CC(=O)c2ccccc2)c2ccccc21,16.7,-1.2,-3.1,?,-0.2,-1.7,14.5
CCc1ccc(S(=O)(=O)N2CCN(c3ncccn3)CC2)cc1,5.9,0.5,-14.1,3996,3.0,3.3,3.5
Cc1nc2scc(C)n2c(=O)c1S(=O)(=O)N1CCN(c2ccccn2)CC1,-2.7,0.9,14.1,4555,5.8,-8.3,-11.8
Cc1nc(-c2ccc(S(=O)(=O)NCc3ccccn3)s2)cs1,-2.9,5.0,-25.3,5899,2.0,-2.7,9.2
O=S(=O)(c1ccc(OCc2nc3ccccc3s2)c(Cl)c1)N1CCOCC1,-0.5,-3.2,-31.2,3957,-8.3,-1.1,5.9
COc1cc(C(=O)OC(C)C(=O)NCC2CCCCC2)cc(NC(=O)c2ccco2)c1OC (configuration not stated),-3.4,4.8,4.8,4406,5.8,-7.8,9.3
Cc1cc(C(=O)NCC(=O)OCC(=O)N(C)C2CCCCC2)ccc1[N+](=O)[O-],0.1,1.2,-13.1,2862,12.7,13.4,2.9
N/C(CCN1CCCCC1)=N/O,-15.5,.,-2.2,4496,.,.,.
COc1nccnc1NS(=O)(=O)c1ccc(NC(=S)NC(=O)c2ccccc2)cc1,13.9,6.9,-19.9,2125,39.9,19.5,20.0
COc1ccc(-c2c(C)nc(N)nc2-c2ccc(OCc3ccc(C)cc3)cc2O)cc1OC,-6.0,-2.0,-30.5,7283,6.6,5.2,0.6
COc1ccc(/C=C/C(=O)c2ccc3c4c(cccc24)CC3)cc1OC,5.9,9.2,-22.8,2028,8.8,7.9,-0.9
CC(C)Oc1ccc(CCc2nnc(SC(C)C(=O)O)n2-c2ccccc2)cc1 (configuration not stated),-8.7,.,-17.6,6171,.,.,.
COC(=O)C(Cc1c[nH]c2ccccc12)NC(=O)c1cccc(S(=O)(=O)N2CCCCC2)c1 (configuration not stated),.,6.2,-19.9,8367,11.9,6.3,2.5
Cn1c(Nn2cnnc2)nc2ccccc21,4.1,0.2,-24.5,3843,-2.7,.,.
CC(C)C(=O)Nc1nc(-c2ccc3c(c2)CCN3C(=O)C2CC2)cs1,-8.8,1.0,-37.4,5817,-0.3,-20.9,1.1
COC(=O)C1=C(C(=O)OC)C2N(Cc3ccccc3)c3ccccc3[C@@]23CC(C(=O)OC)N(C(=O)c2cc(C)oc2C)C3=N1 (some centres not stated),.,9.4,.,.,4.2,13.4,16.5
CN(Cc1ccccc1)C(=O)c1cccc(NC(=O)Cc2ccc(NC(=O)C3CCN(C(=O)c4ccccc4)CC3)cc2)c1,.,3.0,-5.0,3959,0.7,-1.9,3.4
COc1ccc(C(=O)N2CC3(CC(c4cccc(NC(=O)COc5ccc(Cl)cc5)c4)=NO3)CC2C(N)=O)cc1 (configuration not stated),.,1.6,.,.,-21.5,8.2,9.9
CC1CC(C)CN(C(=O)CCNS(=O)(=O)c2cccs2)C1 (configuration not stated),4.1,4.1,-14.4,8923,3.3,-2.7,-5.3
COc1ccc(C(=O)Nc2ccccc2C(=O)NN=Cc2ccccc2OC)cc1,.,7.2,.,.,10.4,7.9,10.0
CN(C(=O)COC(=O)c1ccc([N+](=O)[O-])cc1)c1ccccc1,-2.8,5.0,-8.4,4599,1.6,-4.1,5.9
CC(C)C(NC(=O)/C=C/c1cccc([N+](=O)[O-])c1)C(C)C,2.3,4.9,-14.6,1957,-5.1,-1.2,10.7
CCCCNC(=O)C1CCC(CNS(=O)(=O)c2ccc(C)cc2)CC1 (configuration not stated),-1.4,2.1,-24.6,4560,5.2,-3.5,4.9
O=S(=O)(Nc1ccc(-c2cn3c(n2)SCC3)cc1)c1cccs1,-4.9,3.2,-21.3,2041,2.6,-4.3,-1.3
COc1cc(CNC2CCCc3ccccc32)cc(OC)c1OC (configuration not stated),-0.4,5.6,-16.9,2620,12.4,15.5,6.5
CCCc1cc(-c2ccc3c(c2)COc2c4ccccc4nn2-3)on1,16.7,7.7,-14.8,3759,-25.4,12.1,8.1
COc1ccc(C(=O)Nc2ccc(Cl)cc2C(=O)NCc2ccco2)cc1OC,-9.6,-1.2,-24.1,4371,-24.2,2.0,20.8
COC(=O)c1ccc2c(=O)n(CCN3CCOCC3)c(SCC(=O)Nc3ccc(OC)cc3OC)nc2c1,-6.0,0.3,-5.7,5354,-0.2,3.8,2.4
COc1ccc(OC)c(NC2=NCCCS2)c1,-11.2,10.6,-17.3,4462,4.0,6.0,12.2
O=S(=O)(N/N=C\c1cccn1-c1ccccc1)c1ccc2ccccc2c1,-3.4,.,-9.6,2966,.,.,.
O=C(OCC(=O)N1CCCC1=O)c1ncc(Cl)c(Cl)c1Cl,-11.3,-0.1,-11.7,5625,0.7,-6.8,2.0
Cc1ccc(OCC(=O)Nc2ccc(N3CCN(S(C)(=O)=O)CC3)cc2)cc1C,-4.7,9.1,-16.6,4378,3.6,0.0,8.5
NC(=O)C1CCN(C(=O)COc2cccc3cccnc23)CC1,-6.2,-6.8,-2.7,1968,-13.3,-0.3,-6.4
Cc1csc2nc(SCC(=O)N3CCN(c4ccccc4)CC3)[nH]c(=O)c12,6.6,5.0,1.0,4789,7.8,-0.3,2.4
COc1ccc(C(=O)NCc2cccnc2)cc1,-0.6,4.5,-17.9,21373*,3.2,7.5,7.7
O=C(/C=C/c1ccccc1)NNC(=O)c1cccnc1,2.8,1.1,5.2,10099,0.0,-3.7,-0.8
CN(C)c1cccc(C(=O)N/C=C/n2cnc3cc(C(F)(F)F)ccc32)c1,-6.8,0.9,-27.4,4210,-11.2,6.4,2.4
O=C(Cc1ccccc1)NNC(=S)NC(=O)c1cccs1,4.5,19.3,.,6365,1.2,10.6,13.4
CCOC(=O)C[C@H]1c2ccccc2S(=O)(=O)N1Cc1ccc(Cl)cc1,1.5,.,-4.5,4396,.,.,.
COCCCNC(=O)CCCOc1ccccc1,13.4,3.4,-19.7,8158,5.9,4.6,7.0

# One compound at a time, as listed above. Order of screens: BJeLR viability, RN4220 kill, PrP 5UTR inh, Bead autofluor, Sa ugtP lethal, Mtb hypoxia inh, Mtb hypoxia inh growth
# Cc1ccc(OCC(=O)Nc2ccc(N3CCN(S(C)(=O)=O)CC3)cc2)cc1C is entered as -4.7, 9.1, -16.6, 4378, 3.6, 0.0, 8.5
# CCOC(=O)C[C@H]1c2ccccc2S(=O)(=O)N1Cc1ccc(Cl)cc1 is entered as 1.5, ., -4.5, 4396, ., ., .
# Cc1csc2nc(SCC(=O)N3CCN(c4ccccc4)CC3)[nH]c(=O)c12 is entered as 6.6, 5.0, 1.0, 4789, 7.8, -0.3, 2.4
# CN(C)c1cccc(C(=O)N/C=C/n2cnc3cc(C(F)(F)F)ccc32)c1 is entered as -6.8, 0.9, -27.4, 4210, -11.2, 6.4, 2.4
# COCCCNC(=O)CCCOc1ccccc1 is entered as 13.4, 3.4, -19.7, 8158, 5.9, 4.6, 7.0

# Remaining list, next part.
SMILES,BJeLR viability,RN4220 kill,PrP 5UTR inh,Bead autofluor,Sa ugtP lethal,Mtb hypoxia inh,Mtb hypoxia inh growth
COc1ccc(NS(=O)(=O)c2ccc(C)c(C(=O)N3CCN(Cc4cc(OC)ccc4OC)CC3)c2)cc1,.,0.7,-14.7,?,1.9,-7.5,9.8
Cc1cc(C)nc(NC(=O)c2ccc(Cl)cc2[N+](=O)[O-])c1,-11.1,8.2,-14.4,2505,8.0,1.6,2.2
COc1ncnc2c1N=C1CC(C)(C)CC(N)=C1S2,-3.0,4.6,-8.2,9996,8.5,13.2,7.7
CCCn1c(=O)c(C(=O)NCCc2ccccc2)c(O)c2ccccc21,9.8,2.2,-14.9,3838,0.6,1.2,17.9
O=C(O)/C=C/C(=O)Nc1ccc(SC(F)(F)C(F)(F)C(F)(F)F)cc1,-1.7,5.5,-21.5,4092,9.3,-7.0,-0.2
Cn1cc(Br)c(-c2cccc(NC(=O)CC(C)(C)CC(=O)O)c2)n1,2.1,-1.7,-5.8,3758,-0.7,-1.6,9.2
COc1ccc2c(c1)CC1(CN2C)C(=O)NC(=O)N(c2ccc(F)cc2)C1=O (configuration not stated),5.2,2.6,-0.3,22766*,-2.8,-6.4,-1.3
COc1ccc(N2CCN(C(=O)c3ccccc3NS(=O)(=O)c3ccccc3)CC2)cc1,-6.2,-1.3,-1.3,4743,18.8,5.5,0.0
COc1ccc(/C=C2\C(=O)NCC(=O)N2Cc2ccccc2)cc1,22.9,-3.5,-4.9,?,-9.0,15.7,9.9
COc1ccc(-c2[nH]ncc2CN(C)Cc2cc(C)[nH]n2)c(F)c1,-8.1,2.9,-29.7,3416,5.4,-4.6,10.5
Brc1ccc(CNCCCSc2ncccn2)cc1,6.3,3.0,-16.5,3511,1.6,2.0,10.9
O=C(N1CCOCC1)N(Cc1cccs1)C1CCCC1,1.5,2.7,6.1,3476,0.9,.,.
CCOC(=O)c1c(-c2ccc(C)o2)csc1NC(=O)CSc1nnc(C)s1,7.2,-0.2,-1.4,5888,-2.2,0.5,6.0
COc1cccc(NC(=O)Cn2c(CCC(=O)O)ccc2-c2ccccc2)c1,1.9,-1.9,0.6,4836,-6.6,-0.8,5.9
CC(=O)Nc1ccc(S(=O)(=O)N(C)CC(=O)OCC(=O)N2CCN(C(=O)c3ccco3)CC2)cc1,4.2,1.0,-18.7,6243,0.4,-7.1,6.9
O=C(NCc1ccco1)c1cc2nc(-c3cccs3)cc(C(F)(F)F)n2n1,15.4,5.0,-7.7,15672,1.7,1.0,0.9
Cc1ccccc1NC(=O)c1cccc(S(=O)(=O)Nc2cccc(C(=O)O)c2)c1,9.3,2.9,-11.9,3658,9.9,11.7,2.7
CCOC(=O)c1csc(NC(=O)c2ccc(OC)c(OC)c2)n1,2.6,7.5,-29.1,10707,6.0,4.4,3.6
CC(C)CCOc1ccc(C(=O)C[N+]2(C)CCOCC2)cc1,-1.3,.,-11.6,3603,.,.,.
COc1cc(OC)c(S(=O)(=O)Nc2ccccc2C(=O)O)cc1S(=O)(=O)Nc1ccccc1C(=O)O,5.0,1.8,-41.0,3617,7.6,-7.0,-4.5
CC(Cc1ccccc1)[n+]1cc(/N=C(\[O-])Nc2ccccc2)on1 (configuration not stated),11.1,5.0,-24.2,3625,12.2,.,.
COc1ccc(N2C(=O)CC(N3CCN(c4ccc(S(C)(=O)=O)cc4)CC3)C2=O)cc1 (configuration not stated),-3.1,-1.1,0.9,18815*,5.4,2.9,3.7
CC(=O)Nc1ccc(NC(=O)CN(c2ccc(F)cc2)S(=O)(=O)c2ccc3c(c2)OCCO3)cc1,1.3,7.3,4.1,11596,3.1,-5.4,9.9
O=C(COC(=O)COc1ccccc1)NC1CCCC1,.,5.2,-9.2,6553,4.2,3.2,-1.7
N#Cc1c(C(F)(F)F)cc(-c2cccs2)nc1SCC(=O)O,16.5,6.7,9.6,4804,6.7,-14.4,0.7
